Screening results: PubChem, ICCB-Longwood Screening Facility, Harvard Medical School
CapD inh: inhibitors of Bacillus anthracis CapD enzyme. purified CapD enzyme, fluorescence intensity read-out; hits give low values; some hits fall short of the stated cut. z-score (no concentration beside the values). hit rate 0.23% among 140,000;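 active = z-score under -4 in either of two replicates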;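 also: stock transfer was 100 nL into about 40 µL; score is relative to mean and spread of the plate; one replicate is shown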
AID504770: growth inhibitors of E. coli YBA685 in a screen for V. cholerae RctB (chromosome II replication) inhibitors | hit rate 0.27% among 130,000 | AID 504770 | E. coli YBA685 rctB-dependent plasmid, OD600 growth, 3 h; hits give low values | z-score (no concentration beside the values);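 active = z-score under -2 on both plates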;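 also: wells of about 30 µL received 100 nL stock; score is relative to mean and SD of the test wells; the first replicate is given; strong numbers were not always called active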
Starred values were filed as active, the others as inactive; i = inactive; / = no result given. Only part of the results is shown, so the mix of outcomes need not match the whole.

entry	Structure	CapD inh	AID504770
1	O=S(=O)(Nc1ccccc1O)c1ccccc1	-0.18	0.8
2	COC(=O)c1c(C)[nH]c(C(=O)CN(C)Cc2cccc(OC)c2)c1C	/	-0.25
3	Cc1cccc(NC(=O)c2ncoc2-c2ccccc2Cl)c1C#N	/	0.3
4	S=c1[nH]nc(CSCCOc2ccc(Cl)cc2Cl)o1	0.11	/
5	O=C(O)C1CCCN1S(=O)(=O)c1ccccc1 (stereo not drawn)	-0.33	0.55
6	CSc1nc(-c2ccccc2)cn1-c1ccc(NC(C)=O)cc1	-0.15	-0.05
7	COC(=O)C1=C(C)NC(C)=C(C(=O)OC)C1C(=O)OC(C)C(=O)Nc1ccc(C)cc1 (stereo not drawn)	/	-0.8
8	CCC(=O)N(Cc1ccccn1)c1ccc2[nH]c(C(C)(C)C)cc2c1	-0.43	/
9	COc1ccccc1Oc1ccc(C(F)(F)F)cc1[N+](=O)[O-]	-0.4	/
10	Cc1cc(NC(=O)CSc2nc3c(c(-c4cccnc4)c2C#N)CCC3)no1	4.5	/
11	CCCN1CCC(N(C2CC2)S(=O)(=O)c2ccc(NC(=O)Nc3cccc(Cl)c3)cc2)CC1	-0.51	/
12	Cn1c(=O)n2n(c1=O)C1C=CC2C1	0.47	0.5
13	O=C(CCSc1ccc2ccccc2n1)NCc1ccc2c(c1)OCO2	0.52	0
14	O=[N+]([O-])c1ccc(N2CCCCC2)cc1	-2.5	/
15	Cc1cc(C)nc(/N=C(/NC(=O)Cc2ccccc2)N2CCC(C(N)=O)CC2)n1	3.5	-0.35
16	N#CCCn1c(SCC(=O)N2CCCC2c2ccc3c(c2)OCCCO3)nc2ccccc21 (stereo not drawn)	/	-0.25
17	C=CCNC(=O)C(=O)Nc1cccc(C(F)(F)F)c1	0	/
18	Cc1ccc(S(=O)(=O)NCc2cccs2)cc1	0.58	0.6
19	CCC(C)NC(=O)c1ccc2c(=O)n(C3CCCC3)c(=O)[nH]c2c1 (stereo not drawn)	2.7	-0.8
20	CCOC(=O)c1ccccc1NC(=O)CSc1nc(N)cc(=O)[nH]1	/	0
21	COC(=O)C(C)NC(=O)c1cccnc1Cl (stereo not drawn)	0.24	-0.85
22	O=C1C2=C(Nc3ccccc3SC2c2ccccc2F)c2ccccc21 (stereo not drawn)	1.7	0
23	O=C(COc1cccc[n+]1[O-])N1CCc2ccccc21	/	-0.15
24	Cc1c(C(C)NC(=O)COc2ccc(Br)cc2Cl)cnn1C (stereo not drawn)	-0.24	1
25	CSc1n[nH]c(NS(=O)(=O)c2ccc(Cl)cc2)c1-c1ccccn1	-0.17	-0.35
26	COC(=O)C1=CN(Cc2ccc(OC)c(OC)c2)C=C(C(=O)OC)C1c1cccc(Br)c1	19	/
27	COc1cc(C)c(C(C)C)cc1S(=O)(=O)N1CCN(c2cccc(Cl)c2)CC1	-0.11	-0.4
28	O=C(CSc1ncnc2ccccc12)NC1CCCCC1	-1	0.25
29	CCN1C(=O)/C(=C/N(C(C)=O)c2ccccc2)OC1=S	-0.99	-0.7
30	CC(NC(=O)CC(c1ccccc1)c1ccccc1)c1ccccc1 (stereo not drawn)	-0.13	-0.8

Next section; it opens with the 3 that closed the last part.
entry	Structure	CapD inh	AID504770
28	O=C(CSc1ncnc2ccccc12)NC1CCCCC1	-1	0.25
29	CCN1C(=O)/C(=C/N(C(C)=O)c2ccccc2)OC1=S	-0.99	-0.7
30	CC(NC(=O)CC(c1ccccc1)c1ccccc1)c1ccccc1 (stereo not drawn)	-0.13	-0.8
31	CC(C)N(Cc1ccccc1)S(=O)(=O)c1ccc(-n2cccn2)cc1	0.21	-0.1
32	COC(=O)c1sc(N)c(C#N)c1C	/	-1
33	N/C(=N\O)C12CC3CC(CC(C3)C1)C2	/	-0.45
34	CC(=O)n1c2c(c3ccccc31)OC(N)=C(C#N)C2c1cccc([N+](=O)[O-])c1 (stereo not drawn)	1.4	/
35	COc1ccc(CCNC(=O)c2c(-c3ccccc3)noc2C)cc1OC	0.17	/
36	CN(C)CCNC(=O)c1ccc(CS(=O)(=O)c2c(Cl)cccc2Cl)o1	-0.85	-1.6
37	Cc1ccc(C)c(S(=O)(=O)NCC(=O)Nc2nsc(-c3ccccc3)n2)c1	0.11	0
38	CC(=O)Oc1cccc(Nc2ncnc3ccccc23)c1	-1.1	-0.4
39	CC1(C)CC(N2COc3c(cc(Cl)c4cccnc34)C2)CC(C)(C)N1	-1.8	2.5
40	Oc1cc(O)c2c(c1)O[C@H](c1ccc(O)c(O)c1)[C@H](O)C2	/	0.1
41	COc1ccc(/C=C/C(=O)C2C(=O)COC2=O)cc1OC (stereo not drawn)	-1.4	-0.85
42	C(=Nc1ccccc1)c1nc(-c2ccccc2)n2ccccc12	13	-1.8
43	Cc1cc(NC(=O)c2cc3c(s2)-c2ccccc2S(=O)(=O)C3)no1	1	-0.2
44	COc1cc(OC)c(OC)cc1CN1CCN(Cc2ccc(F)cc2)CC1	-1.1	-0.25
45	CCn1c2ccccc2c2nnc(NCCc3ccccc3)nc21	0.64	0
46	Cc1ccc(S(=O)(=O)N(c2cc(C)nn2C)S(=O)(=O)c2ccc(C)cc2)cc1	0.38	0.6
47	Cc1c(C(=O)NCc2ccccc2)sc2nc3n(c(=O)c12)CCCC3	-0.14	-0.6
48	CC(=O)Oc1ccc(C(=O)Nc2ccccc2NC(=O)c2ccc(OC(C)=O)cc2)cc1	-0.28	-0.15
49	Cc1cc(N(C(=O)Cn2nnc3ccccc32)C(C(=O)NCC2CCCO2)c2ccc(F)cc2)ccc1-n1cnnn1 (stereo not drawn)	/	0
50	CN(C(=O)C1CCN(c2ncnc3c2nc2n3CCCCC2)CC1)c1ccccc1	0.47	0.65
51	COc1ccc(C(=O)NC(=S)N2CC(C)OC(C)C2)cc1 (stereo not drawn)	-0.63	1.4
52	O=C(COc1ccc(C(F)(F)F)cn1)Nc1ccc(C(F)(F)F)cc1	/	-1.4
53	Cc1ccc2c(c1)c(=O)c1ccccc1n2CC(=O)Nc1ccc(F)cc1Cl	0.18	/
54	Cc1ccc(CNC(=O)Cc2nc3nc(C)cc(C)n3n2)cc1	-0.67	-1
55	CC1(C)CC(=O)CC(C2(O)C(=O)N(Cc3ccccc3)c3ccccc32)O1 (stereo not drawn)	-0.31	-0.2
56	Cc1ccc2[nH]c(=O)c3cc(C(=O)N(C)c4cccc(Cl)c4)sc3c2c1	3.2	-0.85
57	COC(=O)c1cnn(-c2ccc(F)cc2F)c1C(OC)OC	0.38	0.1
58	CS(=O)(=O)c1ccc2nc(NC(=O)c3ccccc3Oc3ccccc3)sc2c1	i	-0.55
59	O=C(ON1C(=O)CCC1=O)c1ccc(Br)o1	-5.7*	-0.95
60	O=C(c1ccc(F)cc1)c1cc2cc(Cl)cc(Cl)c2o1	-0.22	/
61	OCCN1CCN(CC2CC=CCC2)CC1 (stereo not drawn)	0.005	0.8
62	NC(=O)C1CCN(C(=O)c2ccc3c(=O)n(Cc4ccco4)c(SCc4ccc(F)cc4Cl)nc3c2)CC1	0.53	/
63	CCNC(=O)Nc1ccc2[nH]c(C(C)(C)CC)cc2c1	-0.42	/
64	Cc1nc2ccccc2c2c1C(=O)NC2=O	-0.49	-0.65
65	CCC(=O)Nc1cccc(-c2nc3ccccc3[nH]2)c1	14	-0.95
66	N=C(N)n1nc(-c2ccccc2)cc1N	/	-1
67	O=S(=O)(Nc1ccccc1CO)c1ccc(F)cc1	-0.18	-0.05
68	Cc1nn(-c2ccccc2)c2c1C(C(F)(F)F)(C(F)(F)F)C(C#N)=C(N)O2	-0.075	0.15
69	O=C(O)c1c[nH]c2ccc(S(=O)(=O)N3CCc4ccccc43)cc2c1=O	-0.64	/
70	CCN1/C(=C2/SC(=S)N(N)C2=O)C=Cc2cc(C)ccc21	-0.51	1.5
71	COc1ccc(CN(C(=O)CCN2C(=O)c3ccccc3S2(=O)=O)c2ccccc2O)cc1	-0.27	0.25
72	Cc1ccc(C(C(=O)Nc2ccc3c(c2)OCCO3)N(C)C(=O)Cc2cccs2)cc1 (stereo not drawn)	0.09	0.95
73	COC(=O)c1ccc(Cl)cc1N(CCCC#N)S(=O)(=O)c1ccc(Cl)cc1	0.47	/
74	CCN1CCCC1CNS(=O)(=O)c1ccc(-c2cc(C(F)(F)F)no2)s1 (stereo not drawn)	0.62	-1.3
75	O=C(c1cccs1)n1cc2c(n1)-c1cc(Cl)ccc1SC2	1.4	-0.15

Pulled by compound from above, 4 records:
entry	Structure	CapD inh	AID504770
20	CCOC(=O)c1ccccc1NC(=O)CSc1nc(N)cc(=O)[nH]1	/	0
65	CCC(=O)Nc1cccc(-c2nc3ccccc3[nH]2)c1	14	-0.95
37	Cc1ccc(C)c(S(=O)(=O)NCC(=O)Nc2nsc(-c3ccccc3)n2)c1	0.11	0
43	Cc1cc(NC(=O)c2cc3c(s2)-c2ccccc2S(=O)(=O)C3)no1	1	-0.2

The listing continues.
entry	Structure	CapD inh	AID504770
76	CC(C)(C)N(Cc1ccccc1)C(=O)CSc1nnc(-c2ccccc2)o1	/	2.5
77	O=C(C[n+]1cccc(/C=N/O)c1)N1CCOCC1	0.18	-0.3
78	CCn1c(C)nc2cc(CO)ccc21	-0.005	-0.4
79	COc1ccc(-c2nc(-c3ccc(Br)cc3)cs2)cc1	1.2	/
80	CCN(CC)C(=O)CSc1nnc(COc2ccc(Br)cc2)o1	/	1.4
81	CC1CCCC(NS(=O)(=O)c2ccc3c(c2)OCCO3)C1C (stereo not drawn)	/	-0.05
82	Cc1c(C(=O)Nc2ccc(Cl)cc2)sc(N)c1C(N)=O	/	0.2
83	Cc1ccc(C)n1-c1cccc(C(F)(F)F)c1	-0.06	1
84	Cc1cc(C)n(CCCNC(=O)c2ccc(S(=O)(=O)N3CCCCCC3)cc2)n1	/	-0.7
85	COC(=O)c1sccc1Oc1ccc(C(F)(F)F)cc1NC(=O)c1ccc(Cl)cc1	0.52	0.35
86	O=C(O)c1cccnc1SCc1cccc(F)c1	0.78	/
87	CCCN1C(=O)c2[nH]nc(-c3ccccc3)c2C1c1ccccn1 (stereo not drawn)	0.24	0.25
88	O=c1oc2ccc(Br)cc2cc1-c1ccc([N+](=O)[O-])cc1	-0.095	/
89	COC(=O)Nc1ccc(Br)cn1	0.33	-0.5
90	Cc1cc(C(=O)CSc2nnc(Cc3cccs3)n2CCc2ccccc2)c(C)n1CC1CCCO1 (stereo not drawn)	/	-0.25
91	CN(C)C(CNC(=O)c1cccc(C#N)c1)c1ccco1 (stereo not drawn)	/	-0.2
92	COc1ccc(C(=O)C[n+]2cc(-c3ccc(C)cc3)n3c2CCCCC3)cc1OC	0.66	/
93	CCN(CC)C(=O)Cn1cc(C#N)c2ccccc21	1.6	3.1
94	NS(=O)(=O)c1ccc(N=Cc2ccccc2)cc1	0.4	0.35
95	COC(=O)c1cccc(C(=O)OC)n1	-0.22	0.1
96	CC(NC(=O)c1ccc(CS(=O)(=O)Cc2ccccc2F)o1)c1ccccc1 (stereo not drawn)	0.16	-0.6
97	O=c1[nH]nc(-c2ccco2)o1	/	-0.7
98	O=C1c2nc3cc(-c4ccccc4)[nH]n3c(=O)c2CN1Cc1ccco1	35	0.05
99	COc1ccc2ccccc2c1CN1CCCC(COC(=O)NC(Cc2c[nH]c3ccccc23)C(=O)OC(C)(C)C)C1 (stereo not drawn)	-0.18	/
100	COc1ccc(OC)c(Sc2ncccc2C(=O)O)c1	0.29	-0.8
101	O=C(NNC(=O)C1CCN(Cc2ccccc2)CC1)c1cccc(Cl)c1	-0.21	/
102	O=C(CN1C(=O)C2CC=CCC2C1=O)NCC(F)(F)F (stereo not drawn)	/	0.2
103	CC(C)Cn1c(-c2ccccc2)nc2ccccc21	/	0.15
104	CCOc1ccccc1NC(=O)c1sc2ncnc(N(CC)CC)c2c1C	0.66	/
105	CCOc1cc(/C=C2/C(=O)ON=C2C)ccc1OC(=O)c1cccs1	1.7	-0.25
106	CCOC(=O)CSc1ncc(OC)c(Sc2ccc(OC)cc2)n1	-0.18	/
107	COCCNC(=O)c1ccc(NCc2ccccc2OC)c(S(=O)(=O)Nc2cccc(C(F)(F)F)c2)c1	1.9	/
108	CCN(CC)c1ccc(C2C(C(=O)Nc3ccc(Br)cn3)=C(C)NC3=C2C(=O)CCC3)cc1 (stereo not drawn)	0.83	/
109	Cc1ccccc1OCCSc1nc2ccccc2n1CCC(=O)O	0.79	/
110	Cc1cc2cc(CNC(=O)c3cc4ccccc4oc3=O)ccc2n1C	-1.3	1.9
111	Cc1ccc2nc(SCC(=O)NCCSCc3ccco3)[nH]c2c1	-0.2	/
112	CCCn1c(SCC(=O)N2c3ccccc3CC2C)nc2ccccc21 (stereo not drawn)	/	0.8
113	Cn1c(=O)[nH]c(=O)c2c1nc(N)n2Cc1ccccc1	0.99	/
114	Cc1nc(NC(=O)CSc2ccccc2)sc1-c1ccccc1	0.54	0.85
115	CCOC(=O)c1c(CN2CCN(CCO)CC2)n(C)c2cc(Br)c(OC(C)=O)cc12	-0.21	/
116	O=C(COC(=O)c1ccc(CN2CCCC2=O)cc1)c1ccc2c(c1)OCCO2	/	-0.7
117	Cc1cc(=O)[nH]c(N/N=C/c2ccc(OC(=O)c3cccnc3)cc2)n1	/	-1.1
118	Cc1cc(C)nc(/N=C(/N)N(C)C2CCCCC2)n1	1.4	-0.85
119	O=C(O)C(c1ccccc1)N1C(=O)/C(=C\c2ccco2)SC1=S (stereo not drawn)	/	0.15
120	O=C(N/C(=C\c1ccccc1Cl)C(=O)N1CCOCC1)c1ccccc1	0.4	-0.05
121	Cn1ccc(NC(=O)NC(=O)c2c(Cl)cccc2Cl)n1	0.05	1.1
122	COc1cnc(-c2ccccc2)nc1Sc1cccc(Cl)c1Cl	-0.3	/
123	CSC1=NCCN1S(=O)(=O)c1ccc(Cl)cc1	-0.81	/
